VDR inhibitor – Inhibitors of the vitamin D receptor (VDR): qHTS; Vitamin D3 receptor (Homo sapiens), P11473; Potency, µM, for inactives: max response, negative = inhibition, hits mostly inhibitors; AID 504847, 2011; VDR-SRC2-3 peptide fluorescence polarization, 2 h; hit rate 0.93% among 400,000; active = well fitted inhibition curve with a large enough effect; inconclusive = small, poorly fitted or top-dose-only effect, or another doubt; inactive = no such curve, though single readings can be large or run the other way; also: series mostly up to about 120 µM
Target sequence (P11473 whole entry, looked up): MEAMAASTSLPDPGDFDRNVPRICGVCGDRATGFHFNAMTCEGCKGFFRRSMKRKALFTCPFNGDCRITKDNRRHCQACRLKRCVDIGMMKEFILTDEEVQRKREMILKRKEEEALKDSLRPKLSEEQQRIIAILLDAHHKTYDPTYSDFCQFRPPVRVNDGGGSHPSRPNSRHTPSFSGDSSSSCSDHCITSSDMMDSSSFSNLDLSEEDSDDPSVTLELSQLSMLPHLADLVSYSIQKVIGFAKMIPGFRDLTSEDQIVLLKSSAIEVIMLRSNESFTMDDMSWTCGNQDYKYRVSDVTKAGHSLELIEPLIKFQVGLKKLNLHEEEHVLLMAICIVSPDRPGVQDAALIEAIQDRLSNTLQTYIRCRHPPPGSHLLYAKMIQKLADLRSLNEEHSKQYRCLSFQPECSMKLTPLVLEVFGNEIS
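Compounds are added to VDR with labelled SRC2-3 coactivator peptide and held 2 h at room temperature. Inhibition of the VDR–peptide interaction is then read as a change in fluorescence polarization.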
The depositor's hits bear a star; & = joins results of further samples. % is scaled to controls: 0 for no effect and ±100 for the full control effect; potency is read from the fitted curve at half-maximal effect. These rows are one share of the data (hit frequency here may not be typical).

Sample of the layout:
For CCC(C)(C)n1nnnc1CN1CCC(c2nc3ccc(C)cc3[nH]2)CC1 the results were VDR inhibitor 27%.
For COc1ccc(CN(C)C[C@H]2Oc3c(NC(=O)Nc4ccccc4)cccc3C(=O)N([C@H](C)CO)C[C@@H]2C)cc1 the results were VDR inhibitor -14%.
`COc1cccc(OC)c1C(=O)Nc1nnc(-c2ccc(F)cc2)s1` gave VDR inhibitor -7%.
Screening O=C(O)CCn1cnc2onc(-c3cc(F)cc(F)c3)c2c1=O returned VDR inhibitor -1%.
Screening Cc1c(Cl)cccc1NC(=O)C(=O)NCCc1csc2nc(-c3ccccc3F)nn12 returned VDR inhibitor -1%.
CCOC(=O)C1CCN(C(=S)NC(=O)c2cccs2)CC1 was read as VDR inhibitor -7%.
Screening CCCN(CC(=O)Nc1ccccc1C)C(=O)c1ccc(N2CCOCC2)c([N+](=O)[O-])c1 returned VDR inhibitor 10%.

This part in full, repeating the preview:
For CCC(C)(C)n1nnnc1CN1CCC(c2nc3ccc(C)cc3[nH]2)CC1 the results were VDR inhibitor 27%.
For COc1ccc(CN(C)C[C@H]2Oc3c(NC(=O)Nc4ccccc4)cccc3C(=O)N([C@H](C)CO)C[C@@H]2C)cc1 the results were VDR inhibitor -14%.
`COc1cccc(OC)c1C(=O)Nc1nnc(-c2ccc(F)cc2)s1` gave VDR inhibitor -7%.
Screening O=C(O)CCn1cnc2onc(-c3cc(F)cc(F)c3)c2c1=O returned VDR inhibitor -1%.
Screening Cc1c(Cl)cccc1NC(=O)C(=O)NCCc1csc2nc(-c3ccccc3F)nn12 returned VDR inhibitor -1%.
CCOC(=O)C1CCN(C(=S)NC(=O)c2cccs2)CC1 was read as VDR inhibitor -7%.
Screening CCCN(CC(=O)Nc1ccccc1C)C(=O)c1ccc(N2CCOCC2)c([N+](=O)[O-])c1 returned VDR inhibitor 10%.
Cc1c(NS(=O)(=O)c2cccc(C(=O)NCc3ccccc3)c2)c(=O)n(-c2ccccc2)n1C was read as VDR inhibitor 2%.
O=C(NCCCc1nc2ccccc2n1Cc1cccc(Cl)c1)C1CCCCC1 was read as VDR inhibitor 13%.
CCOC(=O)c1nn(-c2ccccc2)c(C#N)c1N was read as VDR inhibitor 7%.
`COc1ccccc1C/C(N)=N/OC(=O)COc1cccc(C)c1C` gave VDR inhibitor -9%.
CCOc1ccc(NC(=O)c2cc3cc(C)ccc3n2C)cc1 was read as VDR inhibitor 7%.
`CCOc1ccc(NC(=S)N2CCN(S(C)(=O)=O)CC2)cc1` gave VDR inhibitor -11%.
Screening Cc1ccc(S(=O)(=O)N2CCN(C(=O)c3cc(C4CC4)nc4c3cnn4C(C)C)CC2)cc1 returned VDR inhibitor -22%.
`CCOC(=O)C(=NC1CCS(=O)(=O)C1)NNc1ccccc1Cl` (stereo not drawn) gave VDR inhibitor -26%.
Screening COc1cc(Cl)c(C)cc1NC(=O)Cc1ccc(OC)c(OC)c1 returned VDR inhibitor 12%.
`COc1ccc(/C=C2\N=C(C)N(c3ccc(C(=O)O)cc3)C2=O)cc1OC` gave VDR inhibitor -18%.
For COc1ccc(OCc2nc3ccccc3[nH]2)cc1 the results were VDR inhibitor 7%.
`COc1cc(NC(=O)c2ccc(=O)[nH]n2)cc(OC)c1OC` gave VDR inhibitor -4%.
CC(C)(C)OC(=O)NCCCCC1=CC2=CC(=O)C(C)(OC(=O)c3ccco3)C(=O)C2=CO1 (stereo not drawn) was read as VDR inhibitor -1%.
Screening Cc1ccc(C)c(S(=O)(=O)N2CCCC2CNC(=O)C(=O)NC2CC2)c1 (stereo not drawn) returned VDR inhibitor 4%.
For COc1cccc(Cn2c(=O)c(-c3ccc(Cl)cc3)nc3cnc(OC)nc32)c1 the results were VDR inhibitor 0%.
`Cc1ccc(CNC(=O)CCS(=O)(=O)c2cccc3nsnc23)cc1` gave VDR inhibitor -2%.
`C=C(C)Cn1c(C)cc(C)c(S(=O)(=O)c2ccccc2C)c1=O` gave VDR inhibitor -7%.
CC(NC(=O)COc1cccc(Br)c1)C(=O)O (stereo not drawn) was read as VDR inhibitor -11%.
Screening CCOC(=O)C1CCN(C(=O)c2cc(-c3ccncc3)nc3ccccc23)CC1 returned VDR inhibitor 12%.
C/C(O)=C\c1nc2ccccc2oc1=O was read as VDR inhibitor 1%.
Cc1ccsc1/C=N/NC(=O)c1ccc(Cn2cc(Br)cn2)o1 was read as VDR inhibitor 2%.
`Cc1ccc(CN2CCN(Cc3cn(C)nc3-c3ccccc3)CC2CCO)o1` (stereo not drawn) gave VDR inhibitor 1%.
Screening CC(=O)NCC(=O)NC1CCCc2c1cnn2-c1ccccc1F (stereo not drawn) returned VDR inhibitor -15%.
Screening CCN1C(=O)c2ccccc2S(=O)(=O)c2ccc(C(=O)NCc3ccccc3Cl)cc21 returned VDR inhibitor 2%.
For COCCCNc1nc2c(c(=O)n(Cc3ccc(F)cc3)c(=O)n2C)n1C the results were VDR inhibitor 6%&2%.
CCCCNC(=O)C1CCN(c2nc(OC)nc(OC)n2)CC1 was read as VDR inhibitor -4%.
`Cc1ccc(C(=O)NCC(=O)NCCSc2ccc(Br)cc2)cc1` gave VDR inhibitor 3%.
Screening C[C@H]1C(O)[C@@]23CCC4C5(C=[N+](CCO)C[C@]4(C)CCC5)C2C[C@@H]1C3 (stereo partly drawn) returned VDR inhibitor 5%.
`COc1ccc(C(C(=O)NCc2ccccc2)N(C(=O)c2snc(C(N)=O)c2N)c2ccccc2OC)cc1` (stereo not drawn) gave VDR inhibitor 6%.
For CC(=O)Oc1ccc(C(=O)Nc2ccccc2C(=O)N2CCCCC2)cc1 the results were VDR inhibitor 12%.
For O=C(CSc1ccc(-c2cccc([N+](=O)[O-])c2)nn1)NC1CCCC1 the results were VDR inhibitor 6%.
Screening COc1ccc(CCNC(=O)COc2ccc(-c3ccc(C#N)cc3)cc2)cc1 returned VDR inhibitor -14%.
`N#CCC(=O)N1CCN(C(c2ccccc2)c2ccccc2)CC1` gave VDR inhibitor 15%.
Screening O=C(NC1CC2CCCC(C1)N2C(=O)NC1CCCCC1)c1ccc(F)cc1 (stereo not drawn) returned VDR inhibitor -11%.
O=C(O)c1cc(Cl)c(Cl)cc1C(=O)N1CCOCC1 was read as VDR inhibitor -2%.
`Cc1cc(C)c2c(CC(=O)Nc3c(C(=O)c4ccc(F)cc4)oc4ccccc34)coc2c1` gave VDR inhibitor 15%.
COc1ccc(Cl)cc1S(=O)(=O)NC(C)C(=O)NCc1ccc2c(c1)OCO2 (stereo not drawn) was read as VDR inhibitor inconclusive.
Cc1cc(C(=O)N2CCN(S(=O)(=O)c3ccccc3C#N)CC2)c(C)o1 was read as VDR inhibitor -9%.
`COc1ccccc1Nc1nc(N)nc(CN2CCCCC2)n1` gave VDR inhibitor -6%.
Screening COc1cccc(Cn2c(CNS(=O)(=O)c3ccc(C(C)(C)C)cc3)nc3cccnc32)c1 returned VDR inhibitor 0%.
Screening CC1CCCCN1c1ncnc(N)c1[N+](=O)[O-] (stereo not drawn) returned VDR inhibitor 1%.
`C=CCc1c(NCCO)nc(C)[nH]c1=O` gave VDR inhibitor -12%.
For O=C(NCCN1CCOCC1)c1ccc(Cl)cc1O the results were VDR inhibitor -13%.
COc1ccccc1N1CCN(CC(=O)Nc2cccc(F)c2)CC1 was read as VDR inhibitor 13%.
COCCCNC(=O)C12CCC(C)(C(=O)C1)C2(C)C (stereo not drawn) was read as VDR inhibitor 5%.
Fc1ccccc1-c1nc2ncccc2o1 was read as VDR inhibitor -3%.
For O=C(COC(=O)C1CC2CCCC(C1)C2=O)Nc1ccccc1 (stereo not drawn) the results were VDR inhibitor -1%.
Screening O=c1c(S(=O)(=O)c2ccc(Cl)cc2)cn(Cc2ccccc2F)c2ccc(F)cc12 returned VDR inhibitor -18%.
`Cc1nc(C(=O)N(C)C)nn1-c1cc(Cl)ccc1Cl` gave VDR inhibitor -7%.
For Cn1c(SCC(=O)NC2CCCCC2)nnc1-c1cccnc1 the results were VDR inhibitor 15%.
`COc1ccc(OC)c(C2NC(=O)CCC2[N+](=O)[O-])c1` (stereo not drawn) gave VDR inhibitor 8%.
N#Cc1cc(C(=O)c2cc(F)ccc2O)cn(Cc2ccccc2)c1=O was read as VDR inhibitor inconclusive.
Cc1ccc(NCCC(=O)c2ccc(Cl)cc2)cc1C was read as VDR inhibitor -14%.

Sorted by SMILES length (smallest number first): part of the list above
For O=C(NCCN1CCOCC1)c1ccc(Cl)cc1O the results were VDR inhibitor -13%.
Cc1ccc(NCCC(=O)c2ccc(Cl)cc2)cc1C was read as VDR inhibitor -14%.
COc1ccccc1N1CCN(CC(=O)Nc2cccc(F)c2)CC1 was read as VDR inhibitor 13%.
Screening O=c1c(S(=O)(=O)c2ccc(Cl)cc2)cn(Cc2ccccc2F)c2ccc(F)cc12 returned VDR inhibitor -18%.

Other entries
`CCCC[C@@H]1C=C(C(=O)O)[C@H](c2ccc(C)cc2)N1S(=O)(=O)c1ccc(C)cc1` gave VDR inhibitor -15%.
For Oc1oc(-c2ccccc2)nc1C=Nc1ccccc1 the results were VDR inhibitor -4%.
`N#Cc1nc(Cc2cccc3ccccc23)oc1NCC1CCCO1` (stereo not drawn) gave VDR inhibitor 0%.
Screening CN1CCN(c2ccccc2NC(=O)c2ccc3c(c2)OCCO3)CC1 returned VDR inhibitor -21%.
Screening Cc1c(S(=O)(=O)NC2CCCCC2)c(=O)n(C)c(=O)n1C returned VDR inhibitor -14%.
For O=C1CCC([N+](=O)[O-])C(c2ccc(-c3ccccc3)cc2)N1 (stereo not drawn) the results were VDR inhibitor -1%.
C/C(=N\NC(=O)c1ccc(Br)cc1)C1C(=O)c2ccccc2C1=O was read as VDR inhibitor -12%.
`O=C(Cn1ncnn1)OCc1ccccc1Cl` gave VDR inhibitor 1%.
Screening Cc1cccc(N(C(=O)Cn2nnc3ccccc32)C(C(=O)NC(C)(C)C)c2ccsc2)c1 (stereo not drawn) returned VDR inhibitor 0%.
For COCCN(CCOC)c1ncnc2c1cnn2-c1ccccc1 the results were VDR inhibitor 0%.
CSc1ccccc1-c1nnc(NC(=O)Cc2ccccc2)o1 was read as VDR inhibitor 9%.
For CCOC(=O)CC[C@H](NC(=O)Cn1cnc2c(OCc3ccccc3)ncnc21)C(=O)OCC the results were VDR inhibitor -16%.
Cc1cc(C)cc(-n2c(C)cc(/C=N/NC(=O)CSc3ncccn3)c2C)c1 was read as VDR inhibitor -6%.
For O=C(NC1=NCCS1)C1CCN(S(=O)(=O)c2cc([N+](=O)[O-])ccc2Cl)CC1 the results were VDR inhibitor -9%.
Cc1n[nH]c(=O)nc1Nc1ccc(O)cc1 was read as VDR inhibitor -3%.
`Cc1cc(OCC(=O)Nc2ccccc2N2CCCC2)ccc1C(C)C` gave VDR inhibitor 8%.
CCOc1ccc(S(=O)(=O)Nc2ccc(C(=O)NCC3CCCO3)cc2)cc1 (stereo not drawn) was read as VDR inhibitor 1%.
Screening O=c1c2ccccc2nnn1Cc1ccc2ccccc2c1 returned VDR inhibitor -4%.
For CCCC(=O)Nc1ccc(N2CCOCC2)cc1 the results were VDR inhibitor -2%.
For O=C(c1ccco1)N1CCC(c2nc(-c3ccccc3Cl)no2)CC1 the results were VDR inhibitor 18%.
Screening CCN(CC)CCCNC(=O)N[C@@H](Cc1ccccc1)C(=O)O returned VDR inhibitor -8%.
`CN(C(=O)COC(=O)c1cc2ccccc2oc1=O)C1CCCCC1` gave VDR inhibitor -7%.
`CCOC(=O)c1oc2ccccc2c1NC(=O)c1ccc2c(c1)OCO2` gave VDR inhibitor 5%.
Screening COc1ccc(CCNC(=O)Cn2cnc3sc(C)c(-c4ccc(F)cc4)c3c2=O)cc1OC returned VDR inhibitor 9%.
Screening CCN(CC)CCNC(=O)c1ccc(NC(=O)c2cn(-c3ccc(F)cc3)nc2-c2cccc(OC)c2)cc1 returned VDR inhibitor -1%.
For Cc1c(-c2ccc(F)cc2)nc(N)c(C#N)c1-c1cccnc1 the results were VDR inhibitor -10%.
Screening Cn1c2ccccc2c2cnn(CC(=O)N3CCN(c4cccc(C(F)(F)F)c4)CC3)c(=O)c21 returned VDR inhibitor -5%.
COc1ccc2nc(C)cc(NCc3cccc(C(F)(F)F)c3)c2c1 was read as VDR inhibitor -5%.
CCOC(=O)C1=C(N)OC2=C(C(=O)CC(C)(C)C2)C1c1cccs1 (stereo not drawn) was read as VDR inhibitor -13%.
CCC(=O)Nc1ccc(NC(=O)c2ccccn2)cn1 was read as VDR inhibitor -4%.
CN(C)CCCNc1cc(Cl)c(S(=O)(=O)N2CCCCC2)cc1C(=O)O was read as VDR inhibitor 14%.
`Cc1ccc(S(=O)(=O)Nc2c(NC3CCCCC3)c3ccccc3oc2=O)c(C)c1` gave VDR inhibitor -14%.
O=C(N/N=C/c1cc(Br)c(O)c(Br)c1O)c1ccc2c(c1)OCCO2 was read as VDR inhibitor 12%.
COC(=O)c1ccc(C(=O)OC)c(NC(=O)CSc2nc(-c3ccco3)cc(C(F)(F)F)n2)c1 was read as VDR inhibitor -9%.
Screening N#Cc1ccc(S(=O)(=O)N2CCC(N3CCCCC3)CC2)cc1 returned VDR inhibitor 23%.
Screening CCOC(=O)c1c(C)c(C(=O)NCc2cccnc2)c(C)n1CC returned VDR inhibitor 1%.
For Cc1ccc2nc(NCCCO)nc(-c3ccccc3)c2c1 the results were VDR inhibitor 3%.
`COc1ccc(S(=O)(=O)Nc2ccc3c(c2)C(=O)N([C@H](C)CO)C[C@H](C)[C@H](CN(C)Cc2ccc(C(=O)O)cc2)O3)cc1` gave VDR inhibitor 9%.
N#Cc1ccccc1OCC(O)CS(=O)(=O)c1ccccc1 (stereo not drawn) was read as VDR inhibitor -7%.
`Cc1cccc2cc(CN(C(=O)c3cccc(Cl)c3)c3ccccc3)c(=O)[nH]c12` gave VDR inhibitor 6%.

High-throughput results: PubChem, National Center for Advancing Translational Sciences (NCATS)
